# RE007 growth inh – qHTS Assay for Inhibitors of the HIV-1 protein Vpr; S. pombe RE007 Vpr strain, BacTiter-Glo ATP luminescence, 24 h; control for the full effect not named in the record; Potency, µM (series often up to 92.2 µM), without a hit: at the highest dose activity change, negative = less growth; 0.21% of 360,000 active; AID 651644, 2012; active = well fitted falling curve with a large enough effect; inconclusive = small, poorly fitted or top-dose-only effect; inactive = no such curve, though single readings can be large or run the other way;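 also: % is scaled to controls: 0 for no effect and ±100 for the full control effect; nearly all actives have a fitted effect of over 50% in size; the assay follows cell death caused by Vpr and the record does not say whether a fall means rescue or toxicity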
#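 Fission yeast strain RE007, carrying one chromosomally integrated HIV-1 vpr copy, was seeded at OD 0.01 in PMG+AL medium with 23 nL pinned compound. After 24 h at 30 °C and 99% humidity, viability was read by BacTiter-Glo luminescence.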
# MARV entry inh – qHTS for inhibitors of binding or entry into cells for Marburg Virus. AID 540276, 2011. Marburg virus pseudotyped entry inhibition, cell reporter; control for the full effect not named in the record; about a third of the inactives were read at about 46 µM. Potency, µM (doses to about 37.8 µM), without a hit: at the highest dose activity change, negative = inhibition, usual class: inhibitors. 1.8% of 300,000 active; active = well fitted inhibition curve with a large enough effect; inconclusive = small, poorly fitted or top-dose-only effect, or effect the other way; inactive = flat fitted curve, though single readings scatter; tested in HEK293 cells; about a fifth of its hits are not listed in these tables; also: % is scaled to controls: 0 for no effect and ±100 for the full control effect; luciferase read-out
# LASV entry inh – qHTS for Inhibitors of binding or entry into cells for Lassa Virus; Lassa virus pseudotype entry inhibition, cell reporter; control for the full effect not named in the record; Potency, µM (series often up to 37.9 µM), for inactives: at the highest dose activity change, negative = inhibition, usual class: inhibitors; 1.2% of 300,000 active; active means well fitted inhibition curve with a large enough effect; inconclusive means small, poorly fitted or top-dose-only effect, or effect the other way; inactive means flat fitted curve, though single readings scatter; tested in HEK293 cells; also: % is scaled to controls: 0 for no effect and ±100 for the full control effect; nearly all actives have a fitted effect of over 50% in size; luciferase read-out
# Cruzain inh Det – qHTS Assay for Promiscuous and Specific Inhibitors of Cruzain (with detergent). Cruzipain (Trypanosoma cruzi), P25779. purified cruzain, Z-FR-AMC fluorescence, 0.01% Triton. 0.43% of 200,000 active. Potency, µM, for inactives: max response, negative = inhibition, hits mostly inhibitors; active = well fitted curve in the direction sought with a large enough effect; inconclusive = small, poorly fitted or top-dose-only effect, or another doubt; inactive = no such curve, though single readings can be large; an effect the other way counts as inactive or inconclusive;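 also: plate controls were neutral wells for no effect and buffer without enzyme for full effect; nearly all actives have a fitted effect of over 40% in size; top concentration of the series not given in the record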
# Target sequence (P25779 123-467 limits assumed): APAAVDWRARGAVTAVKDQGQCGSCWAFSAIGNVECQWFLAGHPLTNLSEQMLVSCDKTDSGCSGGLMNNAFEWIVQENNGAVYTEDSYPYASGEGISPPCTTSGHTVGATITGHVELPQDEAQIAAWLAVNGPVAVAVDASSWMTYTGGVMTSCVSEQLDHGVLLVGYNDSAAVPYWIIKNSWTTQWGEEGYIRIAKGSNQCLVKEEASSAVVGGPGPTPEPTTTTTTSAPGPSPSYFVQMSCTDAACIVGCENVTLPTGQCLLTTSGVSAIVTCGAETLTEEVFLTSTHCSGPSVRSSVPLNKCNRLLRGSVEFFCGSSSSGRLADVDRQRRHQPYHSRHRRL
#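 Z-FR-AMC hydrolysis (2 uM substrate) by cruzain (1.5 nM) monitored kinetically at ex 360/em 450 nm after 15 min room-temperature compound exposure; 0.01% Triton X-100, pH 5.5, 5 mM DTT.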
# Cruzain noTriton – qHTS Assay for Promiscuous and Specific Inhibitors of Cruzain (without detergent). Cruzipain (Trypanosoma cruzi), P25779. purified cruzain, Z-FR-AMC fluorescence, no detergent. Potency, µM, inactives show max response, negative = inhibition, hits mostly inhibitors. 2.3% of 200,000 active. AID 1476, 2009; active = well fitted curve in the direction sought with a large enough effect; inconclusive = small, poorly fitted or top-dose-only effect, or another doubt; inactive = no such curve, though single readings can be large; an effect the other way counts as inactive or inconclusive;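 also: plate controls were enzyme without inhibitor for no effect and buffer without enzyme for full effect; nearly all actives have a fitted effect of over 40% in size; top concentration of the series not given in the record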
#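 Detergent-free condition (0.00005% Triton X-100) in acetate buffer pH 5.5 with DTT. 1.5 nM enzyme and compound were pre-mixed 15 min, then 2 uM Z-FR-AMC substrate added; reaction progress from fluorescence change between first and third reads (60 s).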
# NS1 function inh – qHTS Assay for Inhibitors of Influenza NS1 Protein Function. S. cerevisiae slowed by influenza A NS1, growth recovery by OD600. Potency, µM (titrated, usually from 46.1 µM), inactives show at the highest dose activity, positive = more growth. 0.4% of 270,000 active. AID 2326, 2010; also: actives are rising curves; nearly all actives have a fitted effect of over 50% in size
#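 A cell-based growth assay was used: compounds that relieve NS1-induced slow growth of budding yeast raise OD600. Assay medium was yeast nitrogen base with ammonium sulphate and -URA supplement, pH 6.0, with 2% galactose.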
# StopGo reporter – High Throughput Screening for Foot and Mouth Disease Virus Antivirals; human cells with a luciferase reporter of 2A StopGo recoding; control for the full effect not named in the record; Potency, µM (top dose mostly 57.9 µM), inactives show top-dose signal change, negative = less light; 1.2% of 410,000 active; AID 1159524, 2015; active = well fitted falling curve with a large enough effect; inconclusive = small, poorly fitted or top-dose-only effect; inactive = no such curve, though single readings can be large or run the other way; tested in HEK293T cells; also: % is scaled to controls: 0 for no effect and ±100 for the full control effect; nearly all actives have a fitted effect of over 45% in size; luciferase light after 4 h
# SARS PLpro yeast – qHTS of Yeast-based Assay for SARS-CoV PLP. AID 485353, 2010. Potency, µM (highest dose often 32.9 µM), for the others: at the top dose activity, positive = growth rescue. S. cerevisiae expressing SARS-CoV PLpro, growth rescue; control for the full effect not named in the record. 0.19% of 330,000 active; also: 0% is about no effect; nearly all actives have a fitted effect of over 55% in size; growth read by luminescence after 48 h
# Numbers without * were called inactive; ? = inconclusive; / = not tested or not shown; & = joins results of further samples; [ ] = another dose, or the depositor's remark. Unless noted, calls follow the shape of the dose curve; as a rule, active means well fitted rising curve with a large enough effect; inconclusive means small, poorly fitted or top-dose-only effect; inactive means no such curve, though single readings can be large or run the other way. Potency is read from the fitted curve at half-maximal effect.
SMILES,RE007 growth inh,MARV entry inh,LASV entry inh,Cruzain inh Det,Cruzain noTriton,NS1 function inh,StopGo reporter,SARS PLpro yeast
CCN(CC)S(=O)(=O)c1ccc(N(C)CCc2ccc(OC)c(OC)c2)nc1,6%,?,-22%,/,/,/,-20%,1%
CCCCn1c(N)c(N(CC(C)C)C(=O)c2ccc(Cl)c(S(=O)(=O)N3CCCC3)c2)c(=O)[nH]c1=O,7%,17%,1%,/,/,/,-11%,-6%
COc1ccc(Oc2ccc(-c3ccn[nH]3)cc2)cc1,4%,1%,?,/,/,-23%,54%[activator],-1%
COc1ccc(Cc2c3cc(OC)c(OC)cc3cc[n+]2C)cc1OC,-9%,/,/,/,/,2%,-10%,-1%
O=C(Nc1ccccn1)c1cc(-c2cccc(Cl)c2)nc2ccccc12,-11%,?,?,/,/,12%,-18%,-1%
Cn1nnnc1SCC(=O)N1CCN(S(=O)(=O)c2ccc(Cl)cc2)CC1,3%,4%[46.1 µM],21%[46.1 µM],/,/,-7%,5%,0%
Cc1ccc(S(=O)(=O)NCCC(=O)OCC(=O)N2CCCC2=O)cc1C,0%,-9%,?,/,/,/,-2%,0%
CC(C)Oc1ccc(CNC(=O)C2CCCN(S(=O)(=O)c3ccc4c(ccn4C)c3)C2)cc1 (configuration not stated),/,/,?,-0.9%,8%,/,0%,/
CCOC(=O)c1c(C)c(C(=O)NCc2cccnc2)c(C)n1C,-10%,1%,-2%,2.5%,-1%,-13%,-18%,-3%
O=C(CC1N=C2c3ccccc3N=C(SCc3cccc(Cl)c3)N2C1=O)NC1CCCCC1 (configuration not stated),/,/,-9%[46.1 µM],0.5%,-1%,/,-15%,/
C=CCn1c(-c2ccccc2)c[nH]c1=S,11%,3%,21%,2.0%,7%,?,61%[activator],8%
COc1cccc(CNC(=O)CCn2cccn2)c1,/,/,11%[46.1 µM],1.0%,-5%,/,-23%,/
COc1ccc(CCNC(=O)C2CC2)cc1OC,2%,-2%,1%,4.0%,9%,-7%,/,-2%
Cc1sc2ncnc(SCC#N)c2c1C,2%,16%,-16%,-1.5%,-8%,0%,/,1%
CCOC(C(=O)OCC(O)CN(CC)CC)(c1ccccc1)c1ccccc1 (configuration not stated),3%,-25%,-12%,5.0%,6%,-3%,-4%,4%
Cc1nc2nc(SCC(=O)NC3CCC(C)CC3)nn2c(C)c1Cc1ccccc1Cl (configuration not stated),/,/,9%[46.1 µM],-0.2%,0%,/,-7%,/
Cc1ccc(S(=O)(=O)N2CC(O)C[C@H]2C(=O)OCC(=O)Nc2ccc(N3CCCCC3)cc2)cc1C (some centres not stated),7%,-1%,4%,/,/,/,20%,2%
CC(=O)Nc1ccc(C(=O)COC(=O)c2c(C)noc2C)c(F)c1,-13%,5%,3%,/,/,/,-10%,2%
O=C(CSc1nc2c([nH]c3ccccc32)c(=O)n1-c1ccc(F)cc1)Nc1ccc2c(c1)OCO2,/,/,-23%[46.1 µM],-1.3%,1%,/,-11%,/
C=CCN1C(=O)c2cccc3c(N4CCCCC4)ccc(c23)C1=O,10%,?,21%[46.1 µM],/,/,/,11%,-3%
O=C(Nc1ccc(F)cc1)N1CCC(c2nc3c(nnn3Cc3ccccc3Cl)c(=O)[nH]2)CC1,-26%,2%[46.1 µM],-27%,/,/,/,-30%,0%
CC(C)(CO)NC(=O)C(Cc1ccccc1)N1C(=O)c2ccccc2C1=O (configuration not stated),-7%,/,/,/,/,4%,-9%,1%
N#Cc1cnn2ccc(-c3ccc4c(c3)CCC4)nc12,11%,?,-26%[46.1 µM],/,/,/,-17%,-1%
c1ccc(N2CC[N+]3(CCCC3)CC2)nc1,14%,-5%,21%,1.0%,-6%,5%,/,-12%
C=CCn1c(=NC(=O)c2ccccc2[N+](=O)[O-])sc2cc(S(C)(=O)=O)ccc21,-8%,?,-4%,-5.0%,20%,-13%,?,12%
# The listing continues.
SMILES,RE007 growth inh,MARV entry inh,LASV entry inh,Cruzain inh Det,Cruzain noTriton,NS1 function inh,StopGo reporter,SARS PLpro yeast
CCCCn1c(=O)[nH]c(=O)c2c(C(=O)OCC)cc(-c3ccc(OC(F)F)cc3)nc21,7%,/,/,/,/,2%,-9%,0%
Cc1sc2nc[nH]c(=O)c2c1-c1ccc(F)cc1,19%,/,/,/,/,5%,0%,0%
COc1ccc(NC(=O)c2c(C)noc2C(C)C)cc1S(=O)(=O)N1CCCCC1,6%,-6%,-24%,/,/,/,-12%,0%
CCOC(=O)C1CCN(CC(=O)N2CCc3ccccc32)CC1,-6%,-18%[46.1 µM],9%[46.1 µM],/,/,7%,17%,1%
CCSc1ccccc1C(=O)N1CCN(c2nc3ccccc3s2)CC1,/,/,-26%[46.1 µM],-17%,7%,/,?,/
Cc1ccccc1OCC(=O)OCc1cc(=O)n2nc(C3CCCCC3)sc2n1,/,/,8%[46.1 µM],-2.5%,?,/,-2%,/
COc1cccc(NC(=O)CSc2nnc(Cc3ccc(C)cc3)c(=O)n2N)c1,16%,-1%,-19%[46.1 µM],/,/,/,-7%,-1%
CC(=O)c1cnc(-c2ccccn2)s1,-8%,?,4%,/,/,/,27%,3%
COc1ccc(CCNC(=O)CS(=O)(=O)Cc2nc(-c3ccc(C)cc3)oc2C)cc1OC,-5%,?,-10%,/,/,-1%,-25%,9%
COc1cc(/C=C/C(=O)N2CCN(C)CC2)cc(S(=O)(=O)N2CCc3ccccc32)c1OC,-2%,/,/,/,/,-6%,-2%,1%
O=S(=O)(Nc1nc2cc3c(cc2nc1Cl)OCCO3)c1ccccc1,-1%,-4%,-23%,/,/,-2%,7%,3%
O=C(C1CCN(S(=O)(=O)c2cccs2)CC1)N1CCCC(C(F)(F)F)C1 (configuration not stated),-11%,2%,-2%,/,/,8%,-19%,?
Clc1ccccc1-c1nnc2sc(C3COc4ccccc4O3)nn12 (configuration not stated),13%,7%&3%,11%,-0.9%,?,-40%,14%,-17%
COC(=O)c1cc2sc(Cl)cc2n1Cc1c(C)cc(C)cc1C,/,12%[46.1 µM],/,-0.8%,6%,/,-7%,/
Cc1cc(C(=O)Nc2ccccc2)oc(=O)c1,-14%,8%[46.1 µM],?,/,/,-3%,42%[activator],1%
Cc1ccnc(NS(=O)(=O)c2ccc(NC(=O)/C=C/c3cccs3)cc2)n1,2%,/,/,/,/,2%,-3%,-4%
CCN1CCN(C(=O)CS(=O)Cc2nc(-c3cccc(C)c3)oc2C)CC1 (configuration not stated),-17%,13%[46.1 µM],7%[46.1 µM],/,/,3%,-5%,-3%
COc1cccc(CC(NC(C)=O)C(=O)NC2CCN(C(=O)C3CCCCC3)CC2)c1OC (configuration not stated),-10%,?,?,/,/,8%,-10%,9%
C=Cc1ccc(COc2ccc3oc(-c4ccccc4)c(C(=O)OCC)c3c2)cc1,/,3%[46.1 µM],-13%[46.1 µM],-5.8%,32µM*,/,-21%,/
CCN(c1ccccc1)S(=O)(=O)c1cc(OC)ccc1OC,5%,-5%,3%,0.4%,14%,-1%,-3%,-1%
CCc1cccc(C)c1NC(=O)CSc1nnc(-c2cc3cc(Br)ccc3o2)n1CC,16%,?,1%,5.6%,7%,-42%,-22%,11%
C/C(CC(=O)Nc1ccc2c(c1)OCO2)=N\NC(=O)c1ccccc1N,9%,24%[14.2 µM],-8%,/,/,6%,3%,0%
Cc1ccccc1CC1SC(N=C(N)N)=NC1=O (configuration not stated),0%,4%,-1%,/,/,4%,16%,0%
O=C(c1ccccc1F)N1CCN(c2ccc([N+](=O)[O-])cc2-n2cccc2)CC1,4%,/,/,/,/,11%,-13%,-3%
O=C(Nc1ccn(Cc2ccccc2)n1)c1cccc(Cn2cc([N+](=O)[O-])cn2)c1,12%,-8%,-6%,-2.0%,5%,8%,?,-8%
Cc1cc([N+](=O)[O-])c(NCCCCCCO)c([N+](=O)[O-])c1,8%,-4%,-27%,/,/,/,?,/
COc1ccc2c(c1)cc(C(O)c1ccccn1)n2S(=O)(=O)c1ccccc1 (configuration not stated),0%,10%,6%,-7.5%,-16%,-8%,43%[activator],-34%
Cc1ccc(N/C(=C\C(=O)c2ccccc2)C(=O)O)cc1,-20%,?,11%,/,/,3%,52%[activator],-2%
O=C1CN(C(=O)c2cc(F)cc(F)c2)c2ccccc2N1,9%,?,?,/,/,-1%,7%,-2%
COc1ccc(CNC(=O)CN2C(=O)NC3(CCCc4sccc43)C2=O)cc1 (configuration not stated),51%,-2%,-26%,/,/,/,-10%,1%

# Exported as tab-separated lines: 7 of the compounds above.
mol	RE007 growth inh	MARV entry inh	LASV entry inh	Cruzain inh Det	Cruzain noTriton	NS1 function inh	StopGo reporter	SARS PLpro yeast
CCc1cccc(C)c1NC(=O)CSc1nnc(-c2cc3cc(Br)ccc3o2)n1CC	16%	?	1%	5.6%	7%	-42%	-22%	11%
C/C(CC(=O)Nc1ccc2c(c1)OCO2)=N\NC(=O)c1ccccc1N	9%	24%[14.2 µM]	-8%	/	/	6%	3%	0%
Cc1ccccc1CC1SC(N=C(N)N)=NC1=O (configuration not stated)	0%	4%	-1%	/	/	4%	16%	0%
O=C(c1ccccc1F)N1CCN(c2ccc([N+](=O)[O-])cc2-n2cccc2)CC1	4%	/	/	/	/	11%	-13%	-3%
O=C(Nc1ccn(Cc2ccccc2)n1)c1cccc(Cn2cc([N+](=O)[O-])cn2)c1	12%	-8%	-6%	-2.0%	5%	8%	?	-8%
Cc1cc([N+](=O)[O-])c(NCCCCCCO)c([N+](=O)[O-])c1	8%	-4%	-27%	/	/	/	?	/
COc1ccc2c(c1)cc(C(O)c1ccccn1)n2S(=O)(=O)c1ccccc1 (configuration not stated)	0%	10%	6%	-7.5%	-16%	-8%	43%[activator]	-34%

# Rows are unselected (roughly 4.7% active in at least one column).
